PKD1 kinase inh: inhibitors of human PKD1 kinase, biochemical, fluorescence polarization; inhibition, %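 (about 10 µM by stock and volumes)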; Serine/threonine-protein kinase D1 (Homo sapiens), Q15139; AID 797, 2007; 200,000 compounds, 0.056% hits; PKD1 kinase fluorescence polarization assay;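 active = inhibition of 50% or more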;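 note: controls were vehicle for no effect and a reference inhibitor for full effect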
HSV augment: enhancers of HSV replication in host cells, fold increase, host cell viability; HSV replication augmentation in cells; maximum fold increase; 220,000 compounds, 0.005% hits; AID 1956, 2009;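 active = peak rise of 1.5-fold or more in the series; tested in PC3 cells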;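 note: first round at 10 µM; read as green reporter fluorescence; hits show the peak of a series up to 25 µM; 1 = signal of infected wells without compound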
GALR2 ag: GALR2 receptor agonists, primary screen, cell-based | activation, %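 (tested at 5 µM)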 | Galanin receptor type 2 (Homo sapiens), O43603 | AID 803, 2007 | GALR2-expressing cells, agonist activation read-out | 140,000 compounds, 0.48% hits;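 active = above mean plus 3 SD of all compounds, about 5% in these data, not always enough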;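 note: 0% = vehicle buffer wells and 100% = reference agonist at full effect; tested in CHO reporter cells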
Target sequence (O43603 whole entry, looked up): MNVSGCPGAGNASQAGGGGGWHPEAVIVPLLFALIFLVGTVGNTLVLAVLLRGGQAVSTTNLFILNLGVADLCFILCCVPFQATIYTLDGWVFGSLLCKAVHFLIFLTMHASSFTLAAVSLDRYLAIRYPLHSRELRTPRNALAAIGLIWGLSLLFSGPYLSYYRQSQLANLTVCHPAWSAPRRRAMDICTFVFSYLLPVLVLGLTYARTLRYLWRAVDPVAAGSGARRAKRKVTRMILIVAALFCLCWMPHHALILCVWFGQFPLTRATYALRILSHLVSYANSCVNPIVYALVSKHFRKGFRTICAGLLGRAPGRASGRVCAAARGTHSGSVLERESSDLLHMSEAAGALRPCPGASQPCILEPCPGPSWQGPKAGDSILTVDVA
Insulin prom inh: inhibitors of insulin promoter-driven GFP, primary screen, imaging, TRM-6 cells (human fetal islet line), eGFP reporter, cell count; reporter expression induced with tamoxifen; inhibition, % at 2 µM; 130,000 compounds, 0.9% hits; AID 1273, 2008;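 active = inhibition above the mean plus 3 SD, with well images judged a real hit on visual review, cut at about 60% in these data, passing the limit was not always enough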
RGS16-Gao: modulators of RGS16 binding to Galphao, primary screen, biochemical, human proteins, multiplexed bead flow cytometry; binding response (% of control), % at 10 µM; bead-based flow cytometry RGS16-Galphao binding, fluorescence; actives lie on both sides; 220,000 compounds, 0.38% hits;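 active = below 25% or above 175%, edge rows of some plates excepted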;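 note: Galphao activated by GDP with aluminum fluoride before binding; 100% = wells without compound and 0% = beads without RGS; some results beyond the cut were filed as inactive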
Target sequence (O15492 whole entry, looked up): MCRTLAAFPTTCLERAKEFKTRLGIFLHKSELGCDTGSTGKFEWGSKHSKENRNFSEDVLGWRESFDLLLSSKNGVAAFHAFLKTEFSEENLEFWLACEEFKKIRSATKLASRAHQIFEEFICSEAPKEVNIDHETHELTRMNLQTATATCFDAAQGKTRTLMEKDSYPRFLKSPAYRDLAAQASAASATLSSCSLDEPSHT
Target sequence (P09471 whole entry, looked up): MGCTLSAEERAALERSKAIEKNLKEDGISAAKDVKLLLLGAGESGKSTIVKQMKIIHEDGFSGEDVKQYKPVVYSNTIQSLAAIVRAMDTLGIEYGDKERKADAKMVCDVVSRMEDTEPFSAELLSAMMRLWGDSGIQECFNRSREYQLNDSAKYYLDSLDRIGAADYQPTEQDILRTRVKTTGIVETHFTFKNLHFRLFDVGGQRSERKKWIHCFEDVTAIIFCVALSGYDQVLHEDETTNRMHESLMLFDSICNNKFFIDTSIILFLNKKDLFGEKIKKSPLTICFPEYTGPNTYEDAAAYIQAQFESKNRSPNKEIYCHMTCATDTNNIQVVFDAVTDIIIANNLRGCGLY
Insulin prom inh cell count: recorded beside Insulin prom inh, whose call it bears; normalized cell count, %; measured here: cell count, toxicity; reference of the scale not given here;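 cells exposed to compound for 48 h; stained nuclei by imaging scaled within each plate; lower means fewer cells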
HSV augment primary fold: further read-out of HSV augment, marked with its call; fold increase; compound at 10 µM; measured here: primary screen fold increase 10 uM; tested in PC3 cells;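 GFP signal in the first replicate; 1 = infected wells without compound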
* marks the source's active call; other numbers are inactive results; i = inactive; nt = not tested or not shown.

SMILES	PKD1 kinase inh	HSV augment	HSV augment primary fold	GALR2 ag	Insulin prom inh	Insulin prom inh cell count	RGS16-Gao
CC(=C/c1ccco1)/C=N/NC(=O)Cc1cccn1C	-11	i	1.1	-1.9	nt	nt	90
Cc1ccc(N2CCN(C(=O)c3ccccc3NC(=O)c3ccccc3C(=O)O)CC2)cc1	3	i	0.99	-2.5	0	50	84
Cn1c([N+](=O)[O-])cnc1N1CCN(c2nncs2)C1=O	nt	i	1	nt	nt	nt	121
CC1C[C@@]2(NC(=O)NC2=O)C(C)CN1C (some centres not stated)	-11	i	1.1	-1.8	32	147	81
O=[N+]([O-])c1cccc(NC2=NCCC2)c1	4	i	1.1	nt	-18	119	104
CCOC(=O)N1CCC(NC(=O)C2CCN(C(=O)N3CC(C)Oc4ccc(C)cc43)CC2)CC1 (configuration not stated)	-4	i	0.96	-2.8	21	61	82
CC(=O)OC1CCC(OC(C)=O)c2c1n([O-])c(C)c(C)[n+]2=O (configuration not stated)	-12	i	1	-1.7	-100	79	99
CC(C#N)(Nc1ccc(Cl)cc1)c1cccnc1 (configuration not stated)	-4	i	1	0.0	14	109	105
CCc1cccc(C)c1NC(=S)NCc1cccn1C	-9	i	1.1	-1.3	0	129	100
C[C@@H](C(=O)N[C@@H](Cc1c[nH]c2ccccc12)C(=O)O)n1nnc2ccccc2c1=O	nt	i	0.94	nt	nt	nt	107
NC(=O)CN1CCN(C2CC(=O)N(CCc3ccccc3)C2=O)CC1 (configuration not stated)	-3	i	0.84	nt	nt	nt	103
CCN1CCN(C(=O)c2cc3c(s2)-c2ccccc2S(=O)(=O)C3)CC1	-3	i	0.9	-0.7	nt	nt	87

Limited to HSV augment, for some of the entries so far:
SMILES	HSV augment
O=[N+]([O-])c1cccc(NC2=NCCC2)c1	i
CCOC(=O)N1CCC(NC(=O)C2CCN(C(=O)N3CC(C)Oc4ccc(C)cc43)CC2)CC1 (configuration not stated)	i

Other compounds.
SMILES	PKD1 kinase inh	HSV augment	HSV augment primary fold	GALR2 ag	Insulin prom inh	Insulin prom inh cell count	RGS16-Gao
Cc1nn(C(=O)CCCC(=O)n2nc(C)c(Cl)c2C)c(C)c1Cl	0	nt	nt	-2.8	55	87	nt
Cc1csc(SCCn2c(Br)nc3c2c(=O)[nH]c(=O)n3C)n1	3	i	0.96	-2.4	nt	nt	108
Cc1ncc(CN2CCN(Cc3ccc(F)cc3)C(CCO)C2)s1 (configuration not stated)	-9	i	0.91	nt	-22	86	103
COCCOC(=O)c1c(C)oc2ccc(OC(=O)c3c(OC)cccc3OC)cc12	-4	i	0.95	0.6	nt	nt	99
CCN1C(=S)SC(=O)C1=C1C=C(C)OC(C)=C1	-2	i	1.1	-0.8	nt	nt	104
CCC(C)(C)NC(=O)C(c1ccc(F)cc1)N(Cc1ccc(OC)cc1)C(=O)c1cnccn1 (configuration not stated)	-4	i	0.97	nt	-71	105	104
CCOc1ccc(OCC)c(NS(=O)(=O)c2ccc3c(c2)CCN3C(=O)C2CCC2)c1	0	i	0.69	-1.4	-471	87	97
N#CC1=C(N)N(c2ccc(F)cc2)C2=C(C1c1ccc(O)cc1)S(=O)(=O)CC2 (configuration not stated)	-3	i	1.2	nt	nt	nt	81
CN(C(=O)CSc1ncnc2sc(-c3ccccc3)cc12)C1CCS(=O)(=O)C1 (configuration not stated)	5	i	0.87	nt	nt	nt	107
CC1CC(C)(C)NC(=S)N1CC(=O)N1CCN(Cc2ccccc2)CC1 (configuration not stated)	1	i	1.1	nt	nt	nt	100
CSCCC(NS(=O)(=O)c1ccc(Br)cc1)C(=O)OCC(=O)NC1CC1 (configuration not stated)	-2	i	0.92	nt	83*	31*	96
COc1ccc(C(=O)/C=C/Nc2ccc(S(N)(=O)=O)cc2)cc1OC	nt	i	1.1	nt	nt	nt	97
CC(C)CCNc1nc2c(c(=O)n(Cc3cccc(F)c3)c(=O)n2C)n1C	11	i	0.83	-1.8	-47	127	109
CCOc1ccc(C2=Nn3c(nnc3-c3ccccc3)SC2)cc1Cl	3	i	0.92	-0.7	nt	nt	95
CC(=O)c1ccc(S(=O)c2ccccc2)cc1 (configuration not stated)	7	i	0.89	-1.7	-65	84	101
O=C(Nc1ccccc1)c1ccc2c(c1)OCCO2	-2	i	1	-1.8	-9	31	101
CCN(CC(=O)Nc1ccc(OC)cc1)CC(=O)Nc1ccc(Br)cc1F	-7	i	0.81	nt	nt	nt	100
O=C1NC2C(NC(=O)N2C2CCCCC2)N1C1CCCCC1 (configuration not stated)	-10	i	0.89	-0.9	35	197	105
COC(=O)C1=C(C)NC2=C(C(=O)CC(c3cccs3)C2)C1c1ccsc1 (configuration not stated)	-6	i	0.72	-1.4	nt	nt	103
O=C1CC(N2CCSCC2)C(=O)N1c1ccccc1 (configuration not stated)	-4	i	0.97	nt	nt	nt	100
CN(C)S(=O)(=O)c1ccc(C(=O)NCC(=O)N/N=C/c2ccccc2Cl)cc1	-3	i	1.1	nt	29	53	114
Cc1sc(N)c(C(=O)c2ccccc2)c1C	-5	i	0.97	nt	0	146	113
N#Cc1c(Nc2ccccc2C(F)(F)F)s[nH]c1=O	nt	i	0.89	nt	nt	nt	99
O=C(c1ccc(Cl)c(S(=O)(=O)N2CCOCC2)c1)N(c1ccccn1)C1CCCCC1	-1	i	0.99	nt	nt	nt	99

As entered above.
For HSV augment primary fold, CCOc1ccc(C2=Nn3c(nnc3-c3ccccc3)SC2)cc1Cl shows 0.92
For HSV augment primary fold, CCN(CC(=O)Nc1ccc(OC)cc1)CC(=O)Nc1ccc(Br)cc1F shows 0.81
For Insulin prom inh cell count, O=C1NC2C(NC(=O)N2C2CCCCC2)N1C1CCCCC1 (configuration not stated) shows 197
For HSV augment primary fold, CC(C)CCNc1nc2c(c(=O)n(Cc3cccc(F)c3)c(=O)n2C)n1C shows 0.83

Further entries
SMILES	PKD1 kinase inh	HSV augment	HSV augment primary fold	GALR2 ag	Insulin prom inh	Insulin prom inh cell count	RGS16-Gao
Cc1ccc(-n2nc3ccc(NC(=O)/C=C/c4ccco4)cc3n2)cc1C	5	i	0.92	-1.3	35	100	89
Cc1ccc(C(=O)NCCNC(=O)CN2CCOCC2)cc1	-13	nt	nt	-2.1	67	183	109
CN(CCCNC(=O)c1ccc(/C=N/O)nc1)CCCN(C)Cc1ccccc1	-4	i	0.93	-1.9	-75	100	103
O=C(NCc1cccc(Cl)c1)c1ccco1	1	i	0.98	-2.2	52	115	99
CCOc1ncccc1C(=O)OCC(=O)Nc1ccc(-c2nc3ccc(C)cc3s2)cc1	1	i	0.76	11*	-28	84	97
CC(C)COC(=O)C(N)C(C(=O)OCC(C)C)c1ccccc1 (configuration not stated)	2	i	0.94	-0.2	3	91	100
Cc1c(Cl)cccc1NC(=S)N=Nc1c(O)n(CN2CCOCC2)c2ccccc12	8	i	0.91	-2.7	-93	38	44
CCc1cccc(C)c1NC(=O)Nc1ccc2c(c1)OCO2	0	i	0.96	nt	nt	nt	94
Cc1ccc(S(=O)(=O)c2nc(S(C)(=O)=O)sc2NCC2CCCO2)cc1 (configuration not stated)	-8	i	0.91	-2.2	65	86	102
COC(=O)C1=C(NC(=O)c2ccc(Br)cc2)CCS1	-6	i	0.97	nt	-5	104	99
O=C(NNc1ncc(C(F)(F)F)cc1Cl)c1c(Cl)cccc1Cl	-6	i	0.46	-1.9	26	93	103
CCCCCSc1nnc(N)s1	nt	i	0.97	nt	nt	nt	103
COCc1cc(C)nc2sc(C(=O)NCCO)c(-n3cccc3)c12	-4	i	0.96	nt	14	118	98
COC(=O)c1cc2c(ccn2C)n1C	-1	i	1.1	nt	nt	nt	106
Cc1cc(NC(=O)CN2C(=O)C3CC=CCC3C2=O)no1 (configuration not stated)	-6	i	0.8	-0.5	0	91	96
Oc1c(N=NC(=S)Nc2ccccc2F)c2ccccc2n1Cc1ccccc1F	2	i	1.1	nt	nt	nt	97
O=C(CN(CCc1ccccc1)C(=O)CNS(=O)(=O)c1ccc(F)cc1)NCC1CCCO1 (configuration not stated)	-10	i	0.84	-0.9	nt	nt	102
CNC(=O)c1sccc1-n1cccc1	-3	i	1	-1.1	-6	91	100
COc1cccc(-c2nn(C)c3sc(C(=O)NCc4ccc5c(c4)OCO5)cc23)c1	-12	i	0.93	-2.1	nt	nt	98
COc1cccc(/C=N/NC(=O)c2cnccn2)c1	1	i	1.1	-1.8	21	46	166
Cn1c(SCC(=O)NC2CCCCC2)nnc1-c1cc2cc(Cl)ccc2o1	-5	i	0.96	-0.6	30	112	118
CCCCN(CCCC)C(=O)/C=C/c1cccc([N+](=O)[O-])c1	6	i	0.95	-2.7	-7	101	86
Nc1nnnn1CC(=O)N/N=C/c1cccs1	nt	i	1.1	nt	nt	nt	104
Oc1ccc(Cc2ccc(Cl)cc2)c(O)c1	nt	i	1	nt	nt	nt	107
CN1CCN(/N=C/c2ccc(C#N)cc2)CC1	-5	i	1.1	nt	nt	nt	97
COc1ccc(-n2c(=O)[nH]c3c(C(N)=O)nc(C4CCCCC4)nc32)cc1	-6	i	0.73	nt	nt	nt	101
Cn1ncc2c(Nc3ccc(O)cc3)nc(Cl)nc21	nt	i	0.86	nt	nt	nt	107
O=C(COC(=O)C1CC2C=CC1C2)Nc1cccc(S(=O)(=O)N2CCOCC2)c1 (configuration not stated)	nt	i	0.85	nt	nt	nt	109
Cn1c(C2=C(O)CN(c3ccccc3)C2=N)nc2ccccc21	-5	i	0.86	nt	12	108	100
CCc1nnc(NC(=O)CCC(=O)N2CCN(C3c4ccccc4-c4ccccc43)CC2)s1	2	i	0.84	-1.4	-7	92	98
O=C(NCCCN1CCOCC1)c1ccc(Br)s1	-5	i	0.99	-1.3	62	144	103
CCn1cc(Cl)c(C(=O)Nc2ccc3c(c2)OCCO3)n1	-8	i	0.93	nt	-27	107	101
O=C(NCc1ccc(Cl)cc1)c1ccccc1Oc1ccccc1	-14	i	1.1	-2.1	-54	91	97
COc1ccc(/C(C)=N/NC(=O)c2ccc(CSc3cccc4cccnc34)cc2)cc1OC	3	i	0.98	-0.1	-33	59	100
C=CCNc1nc(C2(C)CC3(CC(C)(C)OC3=O)C(=O)O2)cs1 (configuration not stated)	22	i	0.84	-0.9	-73	119	101
Cc1cc(NC(=O)COC(=O)c2oc3c(Cl)cccc3c2C)no1	-5	i	1.1	2.8	0	104	100

In the list so far, four contain a cyano group.
SMILES	PKD1 kinase inh	HSV augment	HSV augment primary fold	GALR2 ag	Insulin prom inh	Insulin prom inh cell count	RGS16-Gao
CC(C#N)(Nc1ccc(Cl)cc1)c1cccnc1 (configuration not stated)	-4	i	1	0.0	14	109	105
N#CC1=C(N)N(c2ccc(F)cc2)C2=C(C1c1ccc(O)cc1)S(=O)(=O)CC2 (configuration not stated)	-3	i	1.2	nt	nt	nt	81
N#Cc1c(Nc2ccccc2C(F)(F)F)s[nH]c1=O	nt	i	0.89	nt	nt	nt	99
CN1CCN(/N=C/c2ccc(C#N)cc2)CC1	-5	i	1.1	nt	nt	nt	97

Following part.
SMILES	PKD1 kinase inh	HSV augment	HSV augment primary fold	GALR2 ag	Insulin prom inh	Insulin prom inh cell count	RGS16-Gao
COc1cccc(Cc2n[nH]c(=S)n2Cc2ccco2)c1	nt	i	1	nt	nt	nt	94
CCOC(=O)C1CCN(CCC(=O)Nc2cccc(Cl)c2)CC1	-9	i	0.87	-1.6	nt	nt	102
O=C(NC1CCN(Cc2ccccc2)CC1)c1cncc(Br)c1	-4	i	1	nt	-45	26	118
O=c1oc2cc(Oc3c([N+](=O)[O-])cc(C(F)(F)F)cc3[N+](=O)[O-])ccc2c2c1CCCC2	3	i	0.91	-0.8	nt	nt	67
COc1ccc(N(C(=O)CSCC(=O)Nc2cc(C)on2)C(C(=O)NC2CCCCC2)c2ccc(O)c(O)c2)cc1 (configuration not stated)	-10	i	1	-0.3	29	103	103
Cc1ccccc1NS(=O)(=O)c1ccc(NC(=O)CSCc2ccc(Br)cc2)cc1	-7	nt	nt	-0.2	-4	85	104
CCc1nnc(N/N=C/c2ccc(-c3ccc([N+](=O)[O-])cc3)o2)n1N	-1	i	0.97	nt	nt	nt	100
COc1ccc(-c2[nH]n(-c3ccc([N+](=O)[O-])cc3)c(=O)c2C=NCCN2CCNCC2)cc1	6	i	0.83	nt	33	83	108
CCC(=O)c1ccc(OCCn2cnc3ccccc32)cc1	-11	i	0.88	nt	nt	nt	98
CC(C)(C)c1ccc(-c2c(C#N)c(N)nc3c2CCCC3)s1	12	i	0.77	0.3	-10	70	133
O=C(COC(=O)/C=C/c1ccc(Cl)cc1)Nc1ccc2c(c1)OCCO2	1	i	0.91	0.0	-7	108	96

Bioassay records: PubChem, several laboratories
